# Screening data: PubChem BioAssay, Fisher Drug Discovery Resource Center
# NPYLR7 agonist: agonists of mosquito NPYLR7 receptor, primary screen, cell-based, Aedes aegypti, calcium fluorescence, mosquito biting behavior | AID 1259423, 2018 | 270,000 compounds, 0.15% hits | activation, % at 10 µM | HEK293T NPYLR7/Galpha15, GCaMP6s calcium fluorescence; in the data active means activation above about 40%;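 further: 0% = vehicle and 100% = reference agonist at the receptor; some compounds past the cut are filed as inactive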
# NPYLR7 agonist max-min: also measured in NPYLR7 agonist; calls as there; activation, %; measured here: Max-Min RFU normalised activation; some inactives read as strong as hits;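 span of the calcium signal over five minutes; 0% = vehicle and 100% = native peptide agonist; compound fluorescence can raise it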
# * hit, by the source's call; & = joins results of further samples. The list is partial; count on the stated rates, not on these rows.
SMILES,NPYLR7 agonist,NPYLR7 agonist max-min
COc1cccc(OC)c1C(=O)N(Cc1cccc(OS(=O)(=O)c2ccc(F)cc2)c1)C(C)C,0,5
Cc1ccc(S(=O)(=O)CC(=O)N(Cc2cccnc2)c2nc3cc(C)c(C)cc3s2)cc1,0,-4
COc1ccccc1N1CCN(c2ccc(NC(=O)c3ccc(C(C)(C)C)cc3)cc2C(=O)N2CCC(C)CC2)CC1,16,24
Cc1ccn2c3c(nc2c1)CNC(=O)CC3c1cccc2nonc12 (centres undefined),-1,2
COc1cc2c(cc1OC)C(c1ccccc1)N(C(=O)COc1ccccc1)CC2 (centres undefined),10,2
COc1ccc(CC(C(=O)Nc2ccc(I)cc2)C(C)C(=O)O)cc1 (centres undefined),4,2
Cc1ccc(F)cc1NC(=O)CSCc1ccc(F)cc1,-7,-6
O=C(Nc1ccccc1C(F)(F)F)N(CC(=O)N1c2ccccc2-n2cccc2C1c1ccc(Cl)cc1)C1CC1 (centres undefined),-2,7
c1csc(-c2nnc(COc3ccc(-n4cnnn4)cc3)o2)c1,0,1
O=C(O)CN1C(=O)/C(=C\c2ccc(OC(=O)c3ccco3)cc2)SC1=S,10,8
COc1cccc(NC(=O)c2c(N)c(C(=O)c3ccc4c(c3)CCCC4)n3ccccc23)c1,-1,-7
Cc1cc(CNC(=O)c2cc(C)[nH]n2)c2[nH]c(C)c(C)c2c1,6,3
NC(C(=O)O)C(O)C(F)(F)F (centres undefined),2,4
O=C(CC1CSc2nc3c(c(=O)n21)CCCC3)N1CCN(Cc2ccccc2)CC1 (centres undefined),-2,-3
O=C(Cn1nnc(-c2cccs2)n1)NCc1cccs1,0,6
Cc1nn(C)c(Cl)c1C(=O)NCC(F)(F)F,7,3
CCC(C(=O)N1CCc2nc(-c3ccccc3)nc(N(C)C(C)C)c2C1)c1ccccc1 (centres undefined),15,17
Cc1ccc(C)c(OC(C)C(=O)NCc2snnc2C(C)C)c1 (centres undefined),21,10
Cc1sc(C(=O)NCc2ccccn2)c(-n2c(C)ccc2C)c1C,-8,-10
CCc1ccc(NC(=O)CSc2ncc(S(=O)(=O)c3ccc(C(C)C)cc3)c(=O)[nH]2)cc1,3,2
CN(C)C(=O)CSc1nc(-c2cccs2)cc(C(F)(F)F)c1C#N,-9,-7
CCn1nc(CN)c2ccccc21,-5,-8
CSc1ccc(CN(C(=O)CC2=CCNCC2)C2CC2)cc1,-1,-4
CC1CC(C)CN(c2ccccc2C(C)(C)C)C1 (centres undefined),10,13
CN(C)CCNC(=O)c1cc2c(=O)n3ccccc3nc2n1C,-1,0
CCC(Nc1cccc(OC)c1)C(=O)NC1CC(C)(C)NC(C)(C)C1 (centres undefined),22,12
CCCNC(=O)Nc1cccc(-c2nc3ncccc3o2)c1,27,33
N#CCCC(C#N)CSc1nnc(-c2ccc(Cl)cc2)o1 (centres undefined),14,5
COC[C@H](N)C(=O)Nc1cccc(NC(=O)Cc2ccccc2)c1,5,3
CCOc1ccc2nc(S(=O)(=O)NC(=O)C3(C)CCN3C(=O)c3cccc(F)c3)sc2c1 (centres undefined),2,2
Cc1cccc(Oc2ncccc2NC(=O)N(C)CC2CCCO2)c1C (centres undefined),1,1
Cc1ccc(C(=O)N2CCOCC2)c(C2CCN(C(=O)OCc3ccccc3)CC2)n1,15,3
COCCCN(CC(=O)N1CCc2sccc2C1c1ccc(Cl)cc1Cl)C(=O)C12CC3CC(CC(C3)C1)C2 (centres undefined),-1,-6
COc1ccc(NC(=O)C2CCN(C(=O)[C@H](Cc3ccccc3)NC(=O)Nc3ccc(OC(F)F)cc3)CC2)cc1,24,15
Cc1ccc2c(c1)SC(C)C(=O)N2Cc1ccccc1C (centres undefined),1,-2
COCCNC(=O)c1coc(CN(Cc2ccccc2OC)C(C)C(C)C)n1 (centres undefined),14,9

# Two neighbouring entries from above, for reference:
SMILES,NPYLR7 agonist,NPYLR7 agonist max-min
COc1cccc(OC)c1C(=O)N(Cc1cccc(OS(=O)(=O)c2ccc(F)cc2)c1)C(C)C,0,5
Cc1ccc(S(=O)(=O)CC(=O)N(Cc2cccnc2)c2nc3cc(C)c(C)cc3s2)cc1,0,-4

# 15 compounds from above, ordered by number of heavy atoms, high to low:
SMILES,NPYLR7 agonist,NPYLR7 agonist max-min
COc1ccc(NC(=O)C2CCN(C(=O)[C@H](Cc3ccccc3)NC(=O)Nc3ccc(OC(F)F)cc3)CC2)cc1,24,15
COCCCN(CC(=O)N1CCc2sccc2C1c1ccc(Cl)cc1Cl)C(=O)C12CC3CC(CC(C3)C1)C2 (centres undefined),-1,-6
CCc1ccc(NC(=O)CSc2ncc(S(=O)(=O)c3ccc(C(C)C)cc3)c(=O)[nH]2)cc1,3,2
Cc1ccc(C(=O)N2CCOCC2)c(C2CCN(C(=O)OCc3ccccc3)CC2)n1,15,3
COCCNC(=O)c1coc(CN(Cc2ccccc2OC)C(C)C(C)C)n1 (centres undefined),14,9
Cc1cccc(Oc2ncccc2NC(=O)N(C)CC2CCCO2)c1C (centres undefined),1,1
CCC(Nc1cccc(OC)c1)C(=O)NC1CC(C)(C)NC(C)(C)C1 (centres undefined),22,12
Cc1sc(C(=O)NCc2ccccn2)c(-n2c(C)ccc2C)c1C,-8,-10
CN(C)CCNC(=O)c1cc2c(=O)n3ccccc3nc2n1C,-1,0
CSc1ccc(CN(C(=O)CC2=CCNCC2)C2CC2)cc1,-1,-4
N#CCCC(C#N)CSc1nnc(-c2ccc(Cl)cc2)o1 (centres undefined),14,5
O=C(Cn1nnc(-c2cccs2)n1)NCc1cccs1,0,6
CC1CC(C)CN(c2ccccc2C(C)(C)C)C1 (centres undefined),10,13
Cc1nn(C)c(Cl)c1C(=O)NCC(F)(F)F,7,3
CCn1nc(CN)c2ccccc21,-5,-8

# (further entries)
SMILES,NPYLR7 agonist,NPYLR7 agonist max-min
Cc1ccc(Sc2ccccc2N2CCNCC2)c(C)c1,1,-3
Cn1nc(C(=O)NCCc2ccccc2Br)ccc1=O,-20,-22
O=C(O)c1cccc(NC(=O)c2cccc(S(=O)(=O)Nc3ccccc3)c2)c1,-13,-17
CCc1nc2ccc(C(=O)Nc3cccc(OCC(=O)N(C)C)c3)cn2c1N(C)C(=O)c1cccc(OC)c1,13,15
CCS(=O)(=O)c1c(Nc2ccccc2C)sc(C(=O)c2ccccc2)c1N,-9,-12
CC(=O)c1ccccc1NS(=O)(=O)c1cnc(C)s1,-1,-52
Cc1ccccc1C(C)NS(=O)(=O)c1ccc(Cl)c(-c2nn[nH]n2)c1 (centres undefined),-5,-8
COc1ccc2cc(-c3[nH]ncc3CN(C)Cc3nonc3C)ccc2c1,3,0
O=C(NCCc1ccc2c(c1)OCCO2)C12CC3CC(CC(Cl)(C3)C1)C2,2,-3
O=C1CC2(Cc3ccccc3C2)C(=O)N1c1cccc(O)c1,3,2
C=CCn1c(N2CCN(Cc3ccc(Br)cc3)CC2)nc2c1c(=O)[nH]c(=O)n2C,10,4
CCOc1ccccc1C(=O)NCCc1cc2c(OC)ccc(OC)c2[nH]c1=O,1,48
CNC(=O)Cn1c2c(c3ccccc31)C[C@H]1C[C@@H]2[C@@H](OC)CN1Cc1ccco1,19,20
CCOC(=O)N1CCN(CC(=O)N2N=C(c3cc(C)ccc3C)CC2c2ccccc2Cl)CC1 (centres undefined),21,19
O=C(c1ccccc1Cl)N1CCCC(N2CCN(c3ccccc3)CC2)C1 (centres undefined),-3,-1
CCc1cc(C(=O)NCc2c(C)ncc3c2CCN(C(=O)C2=CCCC2)C3)n(C)n1,4,-1
O=C(C1CCCCC1)N1CCc2c([nH]c3ccccc23)C1c1ccc(F)cc1 (centres undefined),10,0
Cc1cc(OC(=O)c2ccco2)ccc1C(C)C,-3,-3
CN(C)c1ccc(C=C2SC(=S)N(NC(=O)c3ccccc3[N+](=O)[O-])C2=O)cc1,1,-6
COC(=O)[C@@H]1C[C@@H](O)CN1C(=O)CN1CCOc2ccccc2C1,-7,-10
COc1ccc(C(CC(=O)N2CCCN(C(C)=O)CC2)c2ccccc2)cc1 (centres undefined),5,1
O=C(Nc1c2c(nn1-c1ccccc1)CS(=O)C2)c1ccc(S(=O)(=O)N2CCCC2)cc1 (centres undefined),-1,-4
Cc1ccc(C)c(CSc2ncc(CO)n2CC(=O)NCc2ccc(F)cc2)c1,8,4
O=C(c1ccc(-c2cc(-c3ccc(Cl)cc3Cl)[nH]n2)cc1)N1CCc2ccccc2C1,0,11
O=C(c1cc(=O)n(-c2ccccc2)[nH]1)N1CCOC(c2ccc(F)cc2)C1 (centres undefined),2,0
COc1ccccc1-c1ccc(N2CCC(C(=O)Nc3ccc(C(N)=O)cc3)CC2)nn1,-11,-15
COCC(c1ccccn1)N(C)Cc1cc(C)c(C)o1 (centres undefined),-1,-2
CC(C)CNC(=O)[C@@]1(OCc2cccc(F)c2)CC(OCc2ccc(C(F)(F)F)cc2)[C@@H]2OC(C)(C)O[C@@H]2C1 (some centres undefined),8,2
COC(=O)c1ccc(Oc2coc3c4c(ccc3c2=O)OCN(Cc2ccccn2)C4)cc1,7,2
Cc1nn(C)c(C)c1OC(=O)CCc1ccsc1,8,5
O=C(Nc1ccc(C(=O)N2CCC3CCCCC3C2)cc1)c1ccco1 (centres undefined),8,7
COCCN1C(=O)NC(Cc2ccc(F)cc2)(C2CCN(C(=O)CC3=CCCCC3)CC2)C1=O (centres undefined),3,3
NC(=O)COc1cccc(CNC(=O)/C=C/c2ccc(F)cc2)c1,1,-1
O=C(Nc1cccnc1N1CCCC1)N1CCC(NS(=O)(=O)c2cccs2)CC1,1,6
COCCn1c(O)c(C=NN=C(c2ccccc2)c2ccccc2)c(=O)[nH]c1=S,4,8
O=C(CNC(=O)c1ccc(Cl)c(Cl)c1)Nc1ccc(N2CCCC2=O)cc1,12,15
NC(N)=NN=Cc1ccc(Cl)c([N+](=O)[O-])c1,10,7
O=C(c1cccc(Cn2cccn2)c1)N1CCOC(C(F)(F)F)C1 (centres undefined),4,0
NC(Cc1ccc(F)cc1)c1csc(Nc2nccc(C(F)(F)F)n2)n1 (centres undefined),-5,-11
O=C1OC(C[N+](=O)[O-])C(Cl)=C1Oc1ccccc1 (centres undefined),-3,-5
Cc1cc(C)c2c(c1)CC(C)(C)C(=O)N(CCCn1cccn1)C2=O,0,0
CCCN(CC(=O)N1CCc2sccc2C1COc1cccc(C)c1)CC(O)COCc1ccco1 (centres undefined),16,14
O=c1[nH]nc(CN2CCCCC2)n1Cc1ccccc1,-3,-5
CCN1C(=O)C2C3C=CC(C3=C3C4CC5CC(C4)CC3C5)C2C1=O (centres undefined),6,8
CCc1nc2sc3c(c2c2nnnn12)CCC3,4,2
Cc1nnc2sc(SCc3ccc(Cl)cc3)nn2c1=O,-1,-3
Cc1nc(SCC(=O)c2cc3ccccc3oc2=O)c(C#N)c(C)c1Cc1ccccc1,-1,-6
O=C(c1ccsc1)N1CCN(C(=O)c2ccnc(C3CC3)n2)CC1,9,6
CCCCCCc1nc(C(N)=O)c2[nH]c(=O)n(-c3ccccc3OCC)c2n1,11,3
COc1ccc(C(=O)Nc2ccccc2-n2nc(C)nc2C)c(OC)c1,0,679
CCCCCC(=O)N1c2cccc3c2[C@@H](C[C@H]1C(N)=O)CN(CCOC)C3=O,2,5
C=CCN1CCCC1C(=O)N1CCn2nc(C(=O)Nc3ccccc3)cc2C1 (centres undefined),6,1
COc1ccccc1C1Nc2ccccc2N=C2CC(c3ccccc3)CC(=O)C21 (centres undefined),-1,-5
O=C(NNS(=O)(=O)/C=C/c1ccc(Cl)cc1)c1ccccn1,3,4
Cc1ccccc1CN(C)C(=O)CSc1nnc(C2CC2)n1C1CC1,16&1,8&-9
CCOC(=O)c1c(CC(C)C)csc1NC(=O)C1CC1,2,9
CCc1[nH]n(-c2ccccc2)c(=O)c1C1=C([n+]2ccc(C)c(C)c2)C(=O)N(CC(C)C)C1=O,-2,-1
COC(=O)C(CC(C)C)NC(=O)CSc1nnc(Nc2ccc(OC)cc2)s1 (centres undefined),1,0
Cc1ccc(C(=O)Nc2cc3c(cc2N(C)C)n(C)c(=O)n3C)cc1,2,0
COCC(=O)N1CCN(c2cccc(C(F)(F)F)c2)C(=O)C1C (centres undefined),3,9

# Other records follow:
SMILES,NPYLR7 agonist,NPYLR7 agonist max-min
COc1ccc(CCN(C)c2cc(Cl)nc(SCC(=O)N3CCN(c4ccccc4Cl)CC3)n2)cc1OC,-6,-1
C[N+]1(CC(=O)Nc2ccccc2Cl)CCN(C(=O)c2ccco2)CC1,0,-1
CCOc1ccc(-n2ncc(C(=O)N3CCN(C)CC3C)c2C)nn1 (centres undefined),16,15
c1ccc(-c2nc[nH]c2-c2cccc3nsnc23)cc1,-9,-11
Nc1ccnc(N2CCC(N3CCCC3=O)CC2)n1,27,26
CCOc1c(O)[nH]c(=O)n1Cc1ccccc1,1,5
CC(C)c1cc(CN2CCN(c3nc4ccccc4n3CCO)CC2)on1,-7,-9
CCN(C(=O)C(Cl)Cl)C(C)c1nc2ccccc2c(=O)n1Cc1ccccc1 (centres undefined),1,9
CCC(CO)N(Cc1ccc(F)cc1)Cc1c(C)nn(C)c1Cl (centres undefined),6,2
COc1ccc(-c2cc(C(=O)N(C)CCc3ccc(OC)c(OC)c3)nc3c(-c4ccccc4)c(C)nn23)cc1,0,8
CC(=O)Oc1cccc(C(=O)N2CCC(Cc3ccc(-n4cccc4)cc3)CC2)c1C,2,10
